Assay outcomes from PubChem.
TRPML1 ag: qHTS for Agonists of the Human Mucolipin Transient Receptor Potential 1 (TRPML1); activation, % (no concentration beside the values); Mucolipin-1 (Homo sapiens), Q9GZU1; TRPML1-expressing cells, Ca2+ dye fluorescence, FDSS; host cell line not named in the record; reference of the full effect not given here; AID 624414, 2012; 410,000 tested, 0.12% active; in the data active = activation above about 50%; inconclusive = about 30% to 50%; inactive = below about 30%; note: 0% is about no effect; the text of the record puts the active cut at 80%
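TRPML1-DL cells, Tet-induced overnight (~16 h, 37 degrees C), loaded 45-90 min at room temperature with Ca8 no-wash calcium dye plus quencher. FDSS fluorescence: 10 s baseline, compound pin-transfer, 110 s agonist read, then EC80 54-4 (4uM final) and 110 s antagonist read.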
TRPML1 inh: qHTS for Inhibitors of the Human Mucolipin Transient Receptor Potential 1 (TRPML1) | TRPML1-inducible cells, Ca2+ dye fluorescence, FDSS; stronger effect = lower value; inhibition of EC80 agonist-evoked calcium signal | activity change, negative = inhibition, % (test concentration not listed) | 390,000 tested, 0.02% active; in the data active means activity change below about -50%; inconclusive means about -30% to -50%; inactive means above about -30%;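 note: stimulus is agonist 54-4 at its EC80 concentration; % is set by controls: 0 for no effect and ±100 for the full control effect; compound concentration not given in the record; the text of the record puts the active cut at -80%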
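Tet-induced TRPML1-DL cells loaded with Ca8 no-wash calcium dye were read kinetically on FDSS. Compound addition was followed by EC80 agonist 54-4 (4 uM final); inhibition was read over 110 s.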
TRPV1 PAM: HTS Assay for Compounds that Act as Potentiators of the Vanilloid Receptor 1 | TRPV1-expressing cells, Fluo-8 calcium influx, capsaicin EC20 potentiation; host cell line not named in the record; control for the full effect not named in the record | potentiation, % at 8.33 µM | 320,000 tested, 0.02% active; active means potentiation above 80%; inconclusive means 30% to 80%; inactive means below 30%; note: 0% is about no effect
Target sequence (Q8NER1 whole entry, looked up): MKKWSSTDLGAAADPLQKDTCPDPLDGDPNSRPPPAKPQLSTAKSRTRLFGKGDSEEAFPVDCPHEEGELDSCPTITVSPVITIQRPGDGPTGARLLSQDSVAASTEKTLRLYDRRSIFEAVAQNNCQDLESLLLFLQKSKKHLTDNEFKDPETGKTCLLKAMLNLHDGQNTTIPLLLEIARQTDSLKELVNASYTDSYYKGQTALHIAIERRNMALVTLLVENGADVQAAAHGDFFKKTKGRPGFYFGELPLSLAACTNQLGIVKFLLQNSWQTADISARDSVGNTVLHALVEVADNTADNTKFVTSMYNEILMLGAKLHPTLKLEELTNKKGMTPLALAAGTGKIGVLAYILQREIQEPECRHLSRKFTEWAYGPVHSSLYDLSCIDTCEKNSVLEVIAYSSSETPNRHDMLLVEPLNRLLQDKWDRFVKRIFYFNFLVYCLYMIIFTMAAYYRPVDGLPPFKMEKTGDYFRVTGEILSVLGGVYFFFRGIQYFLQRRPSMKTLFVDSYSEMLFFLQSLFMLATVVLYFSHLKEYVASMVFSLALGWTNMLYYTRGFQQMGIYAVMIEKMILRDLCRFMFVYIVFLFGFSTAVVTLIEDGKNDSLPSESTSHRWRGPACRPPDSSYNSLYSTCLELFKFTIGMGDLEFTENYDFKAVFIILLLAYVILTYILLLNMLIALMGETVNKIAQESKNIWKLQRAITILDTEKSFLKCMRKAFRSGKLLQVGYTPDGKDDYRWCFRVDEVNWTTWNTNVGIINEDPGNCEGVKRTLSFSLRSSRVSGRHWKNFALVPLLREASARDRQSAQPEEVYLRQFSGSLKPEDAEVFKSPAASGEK
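Fluo-8 calcium influx in TRPV1-expressing cells, kinetic read (ex 480/em 520 nm). Compound added and read 3 min for agonist activity, followed by capsaicin at EC20 final and 2 min further read for enhancement.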
Menin-MLL FL inh: qHTS Assay for Inhibitors Targeting the Menin-MLL Interaction in MLL Related Leukemias: Competition With Fluorescein Labeled MLL-derived Peptide; Fluorescence polarization, fluorescein-MLL peptide displacement from menin; FP activity change, % at 61.4 µM; 290,000 tested, under 10 active; inconclusive = falling polarisation curve, or a change in total fluorescence; inactive = total fluorescence flat and polarisation flat or rising; no compound was filed as active; the % refers to the polarisation; negative = inhibition;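 note: % of control where 0% means no effect; inhibitors lower the polarisation; unlabelled MLL peptide was the positive control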
ClpP mod: qHTS Assay for Activators of ClpP. ATP-dependent Clp protease proteolytic subunit (Bacillus subtilis (strain 168)), P80244. purified B. subtilis ClpP, FRET peptide cleavage, 20 min. Potency, µM (doses to about 57.5 µM), for the others: at the top dose activity change, negative = active. 340,000 tested, 1.9% active. AID 651965, 2013; active = well fitted falling curve with a large enough effect; inconclusive = small, poorly fitted or top-dose-only effect; inactive = no such curve, though single readings can be large or run the other way; note: potency is the fitted concentration of half-maximal effect; the source files actives as falling curves though it sought activators and does not explain the sign; nearly all actives have a fitted effect of over 65% in size; many hits overshoot -100%
Target sequence (P80244 whole entry, looked up): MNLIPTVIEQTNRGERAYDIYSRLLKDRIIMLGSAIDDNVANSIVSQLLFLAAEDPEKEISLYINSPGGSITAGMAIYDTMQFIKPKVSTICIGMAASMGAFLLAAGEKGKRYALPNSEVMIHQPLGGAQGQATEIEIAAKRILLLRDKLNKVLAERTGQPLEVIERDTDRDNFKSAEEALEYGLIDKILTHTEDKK
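ClpP 10 microg/mL final, pH 8 Tris/KCl buffer with BSA, glycerol, Tween-20; compound pinned in; FRET-FV substrate; RT 20 min; Ex320/Em430; ΔFRET vs ADEP 5.8 microM, DMSO, no enzyme.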
PINK1 modulator: A Quantitative High throughput Screen to Identify Chemical Modulators of PINK1 Expression; PINK1 immunofluorescence, high-content cytometry, 24 h; Potency, µM (titrated, usually from 76.6 µM), for the others: top-dose activation (PINK1 increase), actives largely listed as activators; 410,000 tested, 0.2% active; AID 624263, 2012; active = well fitted activation curve with a large enough effect; inconclusive = small, poorly fitted or top-dose-only effect; inactive = flat fitted curve, though single readings scatter; cell line not stated here;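 note: potency is the fitted concentration of half-maximal effect; % of control where 0% means no effect; nearly all actives have a fitted effect of over 65% in size; a mitochondrial uncoupler was the plate control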
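A stable cell line was treated with compounds at 5 concentrations for 24 hours, with CCCP as control. PINK1 levels and mitochondrial localization were measured by immunofluorescence with mitochondrial, cell and nuclear markers after fixation, read by laser-scanning cytometry.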
Sfp inh: qHTS Assay for Inhibitors of Bacillus subtilis Sfp phosphopantetheinyl transferase (PPTase). 4'-phosphopantetheinyl transferase ffp (Bacillus subtilis), Q9F4F7. Biochemical Sfp PPTase activity, qHTS. Potency, µM, for the others: max response, negative = inhibition, actives largely listed as inhibitors. 310,000 tested, 3.5% active; active = well fitted inhibition curve with a large enough effect; inconclusive = small, poorly fitted or top-dose-only effect, or another doubt; inactive = no such curve, though single readings can be large or run the other way;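 note: the enzyme is Sfp with the accession as filed and its product quenches rhodamine fluorescence; potency is the fitted concentration of half-maximal effect; 0% = enzyme reaction without inhibitor and -100% = no enzyme wells; top concentration of the series not given in the record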
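Sfp 15 nM + cpd, 15 min RT; start w/ rhodamine-CoA 5 uM, BHQ-2-YbbR 12.5 uM (final); 50 mM Hepes pH 7.6, 10 mM MgCl2, 0.01% NP-40, 0.01% BSA; read 525/598 nm at 0 and 30 min.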
* hit, by the source's call; ? = inconclusive; . = not tested or not shown; [ ] = dose if it differs, or a comment.

molecule	TRPML1 ag	TRPML1 inh	TRPV1 PAM	Menin-MLL FL inh	ClpP mod	PINK1 modulator	Sfp inh
c1ccc(Nc2ncncc2-c2ccc3c(c2)OCO3)cc1	.	.	.	-0.5	.	3.7%	2%
Cc1ccc(S(N)(=O)=O)cc1NC(=O)/C=C/c1cccs1	-0.5	5	1	4.4	0.6%	1.2%	14%
CCCC(C(=O)O)n1c(O)c(C=C2N=c3ccccc3=N2)sc1=S (configuration not stated)	0.0	-1	-3	11	.	4.2%	-13%
Cc1ccc2sc(N(CCCN(C)C)C(=O)c3ccc(S(=O)(=O)N4CCc5ccccc5C4)cc3)nc2c1C	0.5	-13	23	.	-1.3%	5.6%	.
Cc1ccc2c(=O)cc(C(=O)Nc3ccc(S(=O)(=O)N4CCC(C)CC4)cc3)oc2c1C	1.5	-16	.	.	2.8%	3.5%	.
COc1ccc(CCNC(=O)CCc2c(C)nc3c(c(C)nn3-c3ccc(C)cc3)c2C)c(OC)c1	1.1	4	.	.	?	1.4%	.
CCCCn1c(N)c(N(CCOC)C(=O)c2ccc3c(c2)OCCO3)c(=O)[nH]c1=O	-1.0	5	-5	.	-0.9%	-0.7%	.
Cc1ccc(NC(=O)CC2OC(=O)c3ccccc32)cc1S(=O)(=O)N1CCOCC1 (configuration not stated)	-1.3	-16	5	.	-0.9%	2.7%	.
CCN(CC)c1nc2c(c(=O)[nH]c(=O)n2C)n1Cc1ccccc1	-0.4	5	8	-3.9	2.0%	2.0%	13%
C[C@H](CO)N1C[C@H](C)[C@@H](CN(C)S(C)(=O)=O)Oc2ccc(NC(=O)Nc3ccccc3)cc2C1=O	0.1	16	.	.	-0.5%	-0.4%	.
Cn1nccc1C(=O)Nc1ccc2c(c1)OCCO2	2.2	-20	0	-2.0	-0.1%	-0.4%	8%
O=C(Nc1nnc([C@@H]2C[C@H](O)[C@@H](CO)O2)s1)c1c(F)cccc1F	-0.9	.	.	.	-0.1%	0.3%	.

Quoted at random: 2 entries already listed.
molecule	TRPML1 ag	TRPML1 inh	TRPV1 PAM	Menin-MLL FL inh	ClpP mod	PINK1 modulator	Sfp inh
Cn1nccc1C(=O)Nc1ccc2c(c1)OCCO2	2.2	-20	0	-2.0	-0.1%	-0.4%	8%
C[C@H](CO)N1C[C@H](C)[C@@H](CN(C)S(C)(=O)=O)Oc2ccc(NC(=O)Nc3ccccc3)cc2C1=O	0.1	16	.	.	-0.5%	-0.4%	.

Next structures follow.
molecule	TRPML1 ag	TRPML1 inh	TRPV1 PAM	Menin-MLL FL inh	ClpP mod	PINK1 modulator	Sfp inh
COc1ccc(C(=O)NNC2=NC(C)(C)Cc3ccccc32)cc1	-0.4	7	18	11	-1.0%	-3.0%	9%
COc1ccccc1N1CCN(c2ncnc3c2cnn3-c2cc(Cl)ccc2C)CC1	0.6	20	.	.	-3.2%	1.0%	.
CCCCc1cc(=O)oc2cc(C)c3c(C(C)(C)C)coc3c12	2.2	17	.	.	-34%	-1.2%	.
Cc1ccc(-c2nc(CS(=O)CC(=O)NCc3ccc4c(c3)OCO4)c(C)o2)cc1 (configuration not stated)	0.2	35	16	0.1	-5.9%	0.9%	-1%
O=[N+]([O-])c1cc(/C=N/n2c(-c3cccnc3)n[nH]c2=S)ccc1Cl	-0.9	-2	-1	0.6	0.2%	-0.1%	?
CC1(C)Cc2c(sc(NC(=O)COc3ccc(Cl)cc3)c2C(N)=O)C(C)(C)N1	0.0	21	11	.	1.3%	0.5%	0%
Cc1c(C(=O)NCc2ccc(Cl)cc2)oc2ccc3c(c12)C(=O)CC(C)(C)O3	?	-19	.	.	?	-0.4%	.
O=C(CCNC(=O)c1ccccc1Cl)Nc1nc(-c2ccccc2Cl)cs1	-0.9	-1	8	0.9	.	2.0%	-5%
CCCCn1cnc2c(c(-c3ccccc3)c(-c3ccccc3)n2Cc2ccco2)c1=N	-0.2	35	-1	1.3	-1.7%	0.7%	?
Cn1c(=O)c2c3c(sc2n2c(SCC(=O)c4ccccc4)nnc12)COC(C)(C)C3	.	.	8	1.5	.	.	12%
O=C(CNC(=O)c1ccc(Cl)cc1Cl)OCN1C(=O)c2ccccc2C1=O	3.1	-16	-6	.	.	-2.8%	.
COc1ccccc1OCCn1ccnc1	0.5	-21	-3	2.5	-1.4%	-1.1%	-30%
CCc1ccc(NCc2cc3cc4c(cc3n(CC(=O)Nc3ccc(F)cc3)c2=O)OCCO4)cc1	4.5	4	.	.	4.0%	0.8%	.
O=C(Cn1c(=O)n(Cc2ccc3c(c2)OCO3)c(=O)c2ccccc21)Nc1cccc(Cl)c1	0.1	13	.	.	2.2%	2.4%	.
Cc1csc(SCc2nc3scc(-c4ccccc4)c3c(=O)[nH]2)n1	-1.4	7	8	-0.2	-2.5%	-0.3%	-3%
CC(=O)NC(c1ccccc1)c1nc(-c2cc3ccccc3o2)cs1 (configuration not stated)	-0.7	.	.	.	13%	1.1%	.
CCc1c(C)c(C#N)c2nc3ccccc3n2c1NCc1ccco1	2.3	-5	-25	0.9	-20%	-0.8%	?
Nc1n[nH]c(C2CCCCC2)n1	0.9	-17	1	-1.2	1.6%	1.7%	6%
CCn1c(=O)cc(SCC(=O)Nc2cc(OC)c(OC)c(OC)c2)c2ccccc21	1.3	52	24	3.0	-8.0%	14%	9%
COc1ccc(/C=C2/CCCC(C(=O)C(F)(F)F)=C2O)cc1OC	1.1	-3	-6	?	3.0%	3.0%	?
COc1ccc(-c2nc(N3CCN(C)CC3)sc2-c2ccc(OC)cc2)cc1	0.1	26	12	-1.3	.	0.8%	?
CC1=C(C#N)C(NC(=O)C2CCCCC2)(C(F)(F)F)C(=O)N1 (configuration not stated)	-0.2	-2	19	0.5	0.4%	4.8%[38.3 µM]	18%
Cc1ccc(C(=O)O)cc1NC(=S)NC(=O)c1ccc(-c2ccccc2)cc1	1.6	1	-14	2.0	.	4.6%	-7%
COc1ccc(C(=O)Nc2ccc(NC(=O)c3cccs3)c(OC)c2)cc1Cl	0.1	2	-7	0.4	-1.2%	3.1%	19%
Cc1cc(C)cc(NC(=O)CNC(c2ccccc2)c2ccccc2)c1	3.5	-13	-12	2.8	.	3.4%	-8%
NC(=O)c1cnn(C2CCS(=O)(=O)C2)c1 (configuration not stated)	0.6	-13	4	-1.0	0.5%	0.7%	6%
CC(=O)NCCc1ccc(C(=O)COC(=O)c2cccn2C)cc1	-0.4	-1	.	.	0.3%	1.1%	.
O=C(CSc1nnc(-c2cccs2)n1-c1ccccc1)N1CCCc2ccccc21	1.5	12	-2	0.7	62%	2.3%[38.3 µM]	5%
Cc1ccc2sc(-c3ccc(N)cc3)nc2c1	0.3	0	.	.	37%	-0.8%	.
CC(=O)c1ccc(OCc2cc(C(=O)N(C)Cc3ncc(C)[nH]3)no2)cc1	1.0	39	8	.	1.6%	0.1%	12%
CC(=O)NC1=NN(C(C)=O)C(C)(CS(=O)(=O)c2ccc3ccccc3c2)S1 (configuration not stated)	-0.9	14	23	1.4	-2.7%	1.2%	11%
COC(=O)CCN(C(=O)c1cc(OC)c(OC)c(OC)c1)c1ccccn1	0.9	-13	2	-4.5	-0.6%	.	0%
CC(C)c1onc(C(=O)NCc2cccs2)c1[N+](=O)[O-]	0.1	0	-12	2.8	0.4%	1.7%	13%
O=c1[nH]ncn1-c1ccc(Br)cc1	-0.5	3	-5	-8.5	.	1.0%	16%
COc1ccc(NC(C)=O)cc1S(=O)(=O)N1CCn2cccc2C1C (configuration not stated)	0.4	-1	-7	.	0.4%	1.5%	.
COC(=O)Cc1[nH]nc2c1C(C1C=CCCC1)C(C#N)=C(N)O2 (configuration not stated)	-0.4	-18	-5	-1.8	7.1µM*	1.3%	2%
C=CCNC(=S)Nc1cccc(N)c1	1.5	-25	5	-5.0	-4.6%	-2.1%	20%
CSc1cccc(NS(=O)(=O)c2ccc(-c3coc(C)n3)cc2)c1	0.9	5	2	.	.	2.1%	-6%
CCN(CC(=O)NCc1cccs1)C(=O)c1ccc(S(=O)(=O)Nc2cccc(C)c2C)cc1	-0.2	0	2	-0.5	0.7%	1.6%	15%
CCN1CCN(CCCNC(=O)c2csc3c2CCCCC3)CC1	-0.5	2	6	1.6	-3.1%	2.9%[38.3 µM]	11%
Cc1cccc(CCNC(=O)C2CCCN(S(=O)(=O)c3cccc4nsnc34)C2)c1 (configuration not stated)	1.8	-10	-13	3.9	-5.8%	0.0%	8%
CCOC(=O)C1=C(C)NC(C)=C(C(=O)OCC)C1C(=O)OCC(=O)N1CC(C)OC(C)C1 (configuration not stated)	1.3	-5	-1	.	-20%	0.1%	.
O=C(CCN1C(=O)S/C(=C\c2cccs2)C1=O)NC1=NCCS1	0.8	-8	1	9.4	-6.2%	0.1%	-7%
N=C1/C(=C\c2ccc(OC(=O)c3ccccc3)cc2)C(=O)N=C2SC(N3CCOCC3)=NN12	0.0	7	-1	3.0	-6.7%	1.5%	-15%
COc1ccc(NC(=O)c2cccc(N3C(=O)C4C5C=CC(C5)C4C3=O)c2)c(OC)c1 (configuration not stated)	-0.3	-5	?	-2.2	2.0%	1.0%	9%
Cc1ccc(NC(=O)CSc2nc3ccccc3nc2N2CCCC2)cc1	0.7	18	12	7.2	-18%	3.2%	4%
COc1cccc(NC(=O)CN(C)C(=O)c2ccc(-c3ccccc3Cl)o2)c1	1.4	3	8	.	-0.8%	0.1%	-9%
CCNC(=O)C(C)Sc1ccc(Cl)cc1 (configuration not stated)	-0.6	-14	-6	2.6	-5.6%	-0.5%	1%
C=CCOc1ccc(/C=N/NC(=O)CN(c2cc(Cl)ccc2OC)S(=O)(=O)c2ccc(C)c([N+](=O)[O-])c2)cc1	0.6	-2	0	-2.1	-0.8%	0.0%	12%
